Source: PubChem
Mtb H37Rv: M. tuberculosis H37Rv growth inhibitors, H37Rv strain (AID 1626); 0.95% of 220,000 active; inhibition, % at 10 µM, or IC50 in µM where a hit was titrated; M. tuberculosis H37Rv growth inhibition; higher % means a stronger effect;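 active means confirmed in a dose series; inconclusive means inhibition above 80% but not taken into the dose series; inactive means below 80% or under 30% at every dose of the series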;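 further: bacteria incubated seven days before Alamar blue readout; 0% = bacteria only wells and 100% = bacteria with antibiotic wells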
RecA splice inh: inhibitors of M. tuberculosis RecA intein splicing; P9WHJ3; cell-free RecA intein splicing, fluorescence; inhibition, %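 (about 9 µM by stock and volumes)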; 0.75% of 290,000 active; AID 2221; in the data active means inhibition above about 30%; inconclusive means no clear call, values can overlap the other calls;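 further: 0% = vehicle wells and 100% = reference inhibitor control wells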
Target sequence (P9WHJ3 whole entry, looked up, canonical isoform): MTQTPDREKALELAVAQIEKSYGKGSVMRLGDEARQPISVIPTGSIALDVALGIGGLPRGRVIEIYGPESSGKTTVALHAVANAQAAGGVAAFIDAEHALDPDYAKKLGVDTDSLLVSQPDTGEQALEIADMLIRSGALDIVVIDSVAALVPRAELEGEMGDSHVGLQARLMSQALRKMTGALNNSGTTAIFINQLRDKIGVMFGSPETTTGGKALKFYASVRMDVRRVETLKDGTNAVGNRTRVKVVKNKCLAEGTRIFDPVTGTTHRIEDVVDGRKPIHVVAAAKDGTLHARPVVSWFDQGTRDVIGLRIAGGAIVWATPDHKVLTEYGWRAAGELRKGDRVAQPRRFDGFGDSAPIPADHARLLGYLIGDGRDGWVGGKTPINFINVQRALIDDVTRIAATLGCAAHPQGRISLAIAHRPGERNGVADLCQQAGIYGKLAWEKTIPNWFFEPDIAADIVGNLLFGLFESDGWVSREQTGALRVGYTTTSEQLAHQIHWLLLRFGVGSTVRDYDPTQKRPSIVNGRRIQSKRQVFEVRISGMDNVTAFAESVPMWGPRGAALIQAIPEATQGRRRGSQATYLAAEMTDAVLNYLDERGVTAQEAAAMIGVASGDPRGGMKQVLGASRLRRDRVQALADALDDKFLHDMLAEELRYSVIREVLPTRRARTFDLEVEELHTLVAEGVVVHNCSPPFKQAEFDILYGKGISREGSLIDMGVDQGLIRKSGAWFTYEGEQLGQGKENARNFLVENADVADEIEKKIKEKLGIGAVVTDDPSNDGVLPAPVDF
YopH PTP inh: YopH (Yersinia) phosphatase inhibition. fluorescence Ex485/Em525. inhibition, %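 (about 10 µM by stock and volumes)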. 0.16% of 140,000 active. AID 898;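 active means inhibition of 50% or more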;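 further: controls were vehicle for no effect and minimum signal wells for full effect; inactives centre near -20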
Mtb bLac sens: beta-lactam sensitization of Mtb H37Rv. inhibition, % at 25 µM. 0.27% of 330,000 active. M. tuberculosis H37Rv growth with meropenem, percent inhibition; hits of this screen are not shown here. AID 434955;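 active means about 74% or more and at least 40 points above the plate without the antibiotic, then above 30% in a dose series; inconclusive means first-round hits that could not be retested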;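 further: growth measured after seven days incubation then overnight dye step; 0% = bacteria only wells and 100% = bacteria with antibiotic; twin plates without the antibiotic show which effects depend on it; some results filed as inactive read as strong as hits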
Arbovirus inh: antivirals against arbovirus infection | arbovirus infection cell-based antiviral screen | inhibition, % at 10 µM | 0.37% of 200,000 active | AID 1251;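 active means inhibition from about 30%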;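 further: bluetongue infection of BSR cells; cell survival read as ATP light after 72 h; 0% = infected wells without compound and 100% = uninfected wells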
Arbovirus inh repeat: also measured in Arbovirus inh; calls as there; inhibition, %; measured here: 10K subset replicate screen; many hits read low in the repeat;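 first of two repeat runs on a subset; 0% = infected and 100% = uninfected wells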
* hit, by the source's call; ? = inconclusive; · = not tested or not shown.

SMILES	Mtb H37Rv	RecA splice inh	YopH PTP inh	Mtb bLac sens	Arbovirus inh	others
CCOC(=O)c1c(NC(=S)Nc2ccccc2)sc2c1CCN(CC)C2	-8%	-29	-12	-10	12
Cc1ccc(N(C)C(=O)N2CCN(S(=O)(=O)c3c(C)cc(C)cc3C)CC2)cc1	-1%	8.6	5	5	-13
CCC1(c2ccccc2)NC(=O)N(CC(=O)NCc2ccc(C)cc2)C1=O (stereo not drawn)	·	0.7	·	1	·
COC(=O)c1cn(CC(=O)N2CCCCC2C)c2ccccc12 (stereo not drawn)	-2%	-2.8	-3	-3	-3
CC(Nc1nc(-c2ccc(F)cc2)cs1)c1nc2cc(C(F)(F)F)ccc2n1CCOCCO (stereo not drawn)	-9%	1.6	·	-8	·
COCC(=O)N1CCC(Oc2ccc(C(=O)NC(C)c3nccs3)cc2)CC1 (stereo not drawn)	·	-0.3	·	6	·
Nc1nc(C(c2ccccc2)c2ccccc2)cs1	·	5.0	·	-14	·
COc1ccc(C(=O)Nc2ccccc2C(=O)Nc2ccccc2C(=O)O)cc1	·	4.6	·	5	·
CCCCCN1CC(=O)N2Cc3[nH]c4ccccc4c3C[C@H]2C1=O	·	-5.5	·	-1	·
CCC1CCCCN1C(=O)CSc1nc(N)cc(N)n1 (stereo not drawn)	3%	-1.8	·	2	0
O=C(Nc1ccccc1C(=O)N1CCOCC1)C1CC(=O)N(C2CCCC2)C1 (stereo not drawn)	5%	-3.1	17	-7	12
CC(=O)c1cc2c(cc1NS(=O)(=O)c1cccc(C(=O)O)c1)OCO2	·	0.6	·	5	·
O=C(NNC(=O)c1cccnc1)Nc1cccc2ccccc12	8%	0.4	-39	-5	-2
Cc1cc2c(SCC(=O)NC3CCCCC3)ncnc2s1	·	-0.2	·	-8	·
COc1ccc(C(=O)N2CCN(Cc3ccccn3)CC2)cc1	·	-1.1	·	1	·
Cc1cc(C(=O)Nc2ccc(F)cc2F)on1	·	0.4	·	-4	·
CC(C)N(Cc1ccccc1)C(=O)CN1C(=O)COc2ccc(S(=O)(=O)NC3CCCC3)cc21	·	-4.3	·	4	·
COc1ccc(/C=C2/SC(=S)N(n3c(C)ccc3C)C2=O)cc1	·	4.4	-11	-4	0
O=C(OCc1ccc(-c2ccccc2)cc1)c1cccc(O)c1	·	0.3	·	-7	·
CCOc1cc(NC(=S)NCC2CCCO2)c(OCC)cc1NC(=O)c1ccccc1C (stereo not drawn)	-3%	0.5	-27	-1	5
Cc1ccc(C)c(NC(=O)CSc2nccn2Cc2ccco2)c1	·	0.4	·	1	·
Cc1nn(C)cc1C(C(=O)NC1CCCCC1)N(Cc1ccccc1Cl)C(=O)c1cnccn1 (stereo not drawn)	-2%	-0.4	·	1	7
Cc1nn(C)c(C(=O)NCc2ccc(Cl)cc2)c1Cl	4%	4.1	-28	7	14
COc1ccc(C(=O)C2CCCN(Cc3cccn3-c3nccs3)C2)cc1OC (stereo not drawn)	-4%	-0.9	·	3	·
COC/C=C/C1=CC2=CC(=O)C(C)(OC(=O)c3cnc4ccccc4n3)C(=O)C2=CN1C1CCCC1 (stereo not drawn)	-5%	12	·	1	·
Cc1ccc(CS(=O)(=O)c2nc3c(c(N(C)C)n2)CCCC3)cc1	-4%	0.5	·	1	2
COc1ccc(C2c3ccc4ccccc4c3Oc3ncn(CCO)c(=N)c32)cc1 (stereo not drawn)	·	17	·	80	·
COc1ccc(N2CCN(C(C)C(=O)N3CC(C)OC(C)C3)CC2)cc1 (stereo not drawn)	3%	-9.6	·	-1	10
Cc1c(C(=O)N2CCN(c3ccccn3)CC2)sc2ncnc(N3CCOCC3)c12	-1%	-0.8	-11	-1	9
Cc1c(C)c2cc(Cl)c(OCC(=O)NC3CC(C)(C)NC(C)(C)C3)cc2oc1=O	·	-0.4	·	1	·
CCOC(=O)c1ccc(NC(=S)Nc2ccccn2)cc1	79%	1.0	3	85	0
CCOc1cccc(-c2nnc(SCC(=O)Nc3ccc(OC)c(OC)c3)n2N)c1	0%	1.3	-51	-3	5
Cc1cc(/N=C/N(C)C)on1	-2%	-1.7	-51	-5	-2
CN(C)C(/C=C/Nc1ccc(F)cc1F)=C(C#N)C#N	-4%	1.6	-43	-1	9
FC(F)(F)c1cc(Oc2ccccc2)ncc1-c1nnc(-c2ccccc2Cl)o1	-5%	7.2	·	17	·
COc1ccc(CNC(=O)CN(Cc2ccc(Cl)cc2)C(=O)c2csnn2)cc1	·	0.5	·	1	·
COc1ccc(CCN2C(=O)N[C@@H](CCC(=O)O)C2=O)cc1	·	0.6	·	-3	·
CNC(=O)c1cc2cc(OC)ccc2n1CCN(Cc1ccccc1)Cc1ccccc1	-1%	0.2	-26	-6	3
O=c1c(-c2ccc(O)cc2)coc2cc(OC3OC(CO)C(O)C(O)C3O)ccc12 (stereo not drawn)	-10%	-5.0	-40	6	4
Cc1cc(C)cc(NC(=O)CN2CCC(NC(=O)Cc3ccccc3)CC2)c1	-6%	0.3	-8	-9	-2
CCc1ccc(NC(=O)N(CCN2CCOCC2)C2CCN(C(C)=O)CC2)cc1	0%	-3.2	4	-8	8
COc1ccc(OC)c(NC(=O)CNC(=O)Cn2cnc3sc(C)cc3c2=O)c1	·	-3.4	·	-3	·
Clc1cccc(Cl)c1CO/N=C/c1c(-c2ccccc2)nc2n1CCS2	-4%	3.8	-29	1	-19
O=C(Cn1c(CC(=O)N2CCCC2)nc2ccccc21)NCc1ccccc1	3%	-3.8	-14	-7	10
CS(=O)(=O)c1ccc(C(=O)OCC(=O)NNC(=O)COc2ccc(Cl)cc2)cc1	·	1.6	·	-3	·
Cc1ccc(C(=O)Nc2nc(-c3ccc([N+](=O)[O-])cc3)cs2)o1	1%	0.9	-21	6	-8
Cc1cccc2[nH]c3c(N4CC=C(c5ccc(F)cc5)CC4)ncnc3c12	43%	·	·	44	·
CCc1nnc(NC(=O)CSc2ncc(-c3ccccc3)n2C)s1	-9%	4.3	-28	3	6
CC(=O)c1ccc(OCC(=O)N(CCC2=CCCCC2)c2c(N)n(Cc3ccccc3)c(=O)[nH]c2=O)cc1	·	1.8	·	-7	·
O=C(CSc1nnc(CNc2ccc(F)cc2)n1Cc1ccccc1)NCc1ccco1	-4%	-0.3	-22	-3	10
Brc1ccc(-c2nc(N/N=C/c3cccnc3)c3ccccc3n2)cc1	11%	0.4	-8	3	-22
COc1ccc(C2/C(=C(/O)c3ccc4c(c3)CC(C)O4)C(=O)C(=O)N2CCCn2ccnc2)cc1 (stereo not drawn)	·	2.1	·	-5	·
CC(=O)Nc1ccc(NS(=O)(=O)c2ccc3c(c2)n(C)c(=O)n3C)cc1	·	-8.9	·	5	·
CC(OC(=O)c1ccc([N+](=O)[O-])s1)C(=O)Nc1ncc(Cl)cc1Cl (stereo not drawn)	20%	1.7	-32	81	-1
COCCCNc1nc2c(c(=O)n(Cc3ccc(OC)cc3)c(=O)n2C)n1C	·	-1.3	·	1	·
Cc1c(CC(=O)NCCCC(=O)O)c(=O)oc2cc3c(cc12)CCC(C)(C)O3	·	-0.4	·	-4	·
O=C(CC(=O)Nc1cc(Cl)ccc1Cl)Nc1cc(Cl)ccc1Cl	·	0.3	·	2	·
O=C(CCN1C(=O)COc2ccccc21)NCCCN1CCCC1	·	0.4	·	-4	·
CC(=O)Nc1ccc(N=Cc2c(O)c(C(=O)Nc3ccccc3)cc3ccccc23)cc1	1%	-6.8	·	21	-19
O=C(Nc1ccc(-c2nnco2)cc1)c1ccccc1	4%	1.3	-8	-2	-8
(cont.)
SMILES	Mtb H37Rv	RecA splice inh	YopH PTP inh	Mtb bLac sens	Arbovirus inh	others
COc1ccc(OCc2nn3c(Cn4cnc5ccccc54)nnc3s2)cc1	3%	0.0	-7	1	-5
O=C(CCc1nnc(Cc2c[nH]c3ccccc23)o1)NC1CCCC1	-6%	-0.7	·	1	2
COc1cccc(CN2CCN(Cc3ccc4c(c3)OCCO4)CC2CCO)c1 (stereo not drawn)	0%	-0.1	·	-9	-1
C[C@H](NC(=O)c1nc[nH]c1C(=O)N[C@H](C)c1ccccc1)C(=O)OCc1ccccc1	2%	6.0	·	58	·
Cn1c(=O)cc(SCC(=O)NCCN2CCN(c3ccccc3F)CC2)c2cc(Cl)ccc21	-5%	8.5	-26	4	9
Cc1c(C(=O)N2CCCC2)sc(NC(=O)c2cccs2)c1C#N	-5%	-0.9	0	-6	-1
CC(NC(=S)Nc1ccc(Cl)cc1)C(c1ccccc1)N1CCOCC1 (stereo not drawn)	5%	7.8	-5	-11	22
CCn1nc(NC(=O)C(C)C)c2cc3cccc(C)c3nc21	·	-55	·	10	·
N=c1c(C(=O)NCc2ccco2)cc2c(=O)n3ccccc3nc2n1C1CCCC1	·	-67	·	-8	·
CCN(CC(=O)NCc1ccncc1)S(=O)(=O)c1cc(Cl)ccc1Cl	·	1.1	·	-1	·
Clc1nn2cnnc2c2ccccc12	-3%	-2.6	·	-3	-10
COCCn1c(SCC(=O)NCc2ccc3c(c2)OCO3)nc2ccccc2c1=O	-4%	·	·	2	1

Quoted at random: 5 records from the list
SMILES	Mtb H37Rv	RecA splice inh	YopH PTP inh	Mtb bLac sens	Arbovirus inh	others
Cn1c(=O)cc(SCC(=O)NCCN2CCN(c3ccccc3F)CC2)c2cc(Cl)ccc21	-5%	8.5	-26	4	9
COc1cccc(CN2CCN(Cc3ccc4c(c3)OCCO4)CC2CCO)c1 (stereo not drawn)	0%	-0.1	·	-9	-1
Cc1c(C(=O)N2CCCC2)sc(NC(=O)c2cccs2)c1C#N	-5%	-0.9	0	-6	-1
O=C(CCc1nnc(Cc2c[nH]c3ccccc23)o1)NC1CCCC1	-6%	-0.7	·	1	2
COc1ccc(OCc2nn3c(Cn4cnc5ccccc54)nnc3s2)cc1	3%	0.0	-7	1	-5

Next section:
SMILES	Mtb H37Rv	RecA splice inh	YopH PTP inh	Mtb bLac sens	Arbovirus inh	others
CCn1c(CNc2ccc(F)cc2)nnc1SCCN1CCCCC1	1%	0.5	4	0	-1
CCOc1ccc(NC(=O)CCC(=O)NNC(=O)c2ccco2)cc1	?	-3.9	·	-2	6
O=C(NCCCn1ccnc1)c1cc2ccccc2oc1=O	-4%	-0.9	-14	-2	6
OCCc1c[nH]c2cc(F)ccc12	·	-0.9	·	-5	·
CCOc1ccc(-n2c(O)c(/C=N/Nc3nc(C)cc(C)n3)c3ccccc3c2=O)cc1	-1%	-3.3	·	87	-31
O=C(CSc1nnc(-c2ccc(Cl)cc2Cl)n1C1CCCCC1)NC1CCS(=O)(=O)C1 (stereo not drawn)	-6%	-7.6	-28	1	0
COc1ccccc1NC(=O)CCCn1c(=S)[nH]c2ccccc2c1=O	3%	0.8	·	2	-10
Cc1ccc2c(C(=O)CN3CCCC3)c(C)[nH]c2c1	9%	0.1	-40	-3	-5
CCCCN(C(=O)CSc1cc(C)c2ccc(OC)cc2n1)c1c(N)n(Cc2ccccc2)c(=O)[nH]c1=O	7%	4.4	13	-2	-4
CCC(=O)N1CCN(c2ccccc2NC(=O)c2ccc([N+](=O)[O-])o2)CC1	·	-6.7	·	100	·
CC(C)(C)[C@H]1C=C(C(=O)O)O[C@@H](OCc2ccc(CO)cc2)C1	-12%	-0.6	·	-2	·
CCN(CC)C(=O)Cn1cc(C(=O)C(=O)N2CCN(c3ccc(OC)cc3)CC2)c2ccccc21	·	-3.2	·	-3	·
CN(C)N=Nc1ccc(S(N)(=O)=O)cc1	-4%	0.9	·	-8	-5
CCNc1nc(Sc2ccc(C)cc2)cc(C(F)(F)F)n1	-2%	1.7	-33	1	-41
OCCc1c[nH]c2ccc(C(F)(F)F)cc12	·	1.7	·	0	·
CCc1nnc(NC(=O)c2cc3ccccc3oc2=O)s1	<0.2µM*	-0.5	-21	93	65*
CC(=O)Nc1ccc(S(=O)(=O)N2CCN(S(=O)(=O)c3ccc(NC(C)=O)cc3)CC2)cc1	·	-2.3	·	7	·
Cc1ccc(CNc2nc3ccc(C)cc3n3cnnc23)cc1	3%	0.0	-10	2	-10
Cc1c(C(=O)NC(=S)NCc2cccnc2)cccc1[N+](=O)[O-]	·	-0.6	·	-3	·
Cc1ccc(S(=O)(=O)Nc2nc(C)c(C(=O)NNS(=O)(=O)c3cc(C)ccc3C)s2)cc1	·	-2.9	·	19	·
Cc1cc(C)nc(SCSc2nc(C)cc(C)n2)n1	1%	-1.4	-13	·	1	Arbovirus inh repeat=-3
CCCCCn1c(=O)c(-c2nc3ccccc3[nH]2)c(O)c2ccccc21	53%	0.4	·	4	-18
Cc1ccc(-c2c[n+](CC(=O)Nc3c(C)cccc3C)c3n2CCC3)cc1	-2%	-2.6	·	-3	·
CC(C)Cc1nnc(NC(=O)CN2C(=O)NC3(CCCC3)C2=O)s1	·	-0.3	·	-8	·
CCN(CC)C(=O)c1[nH]cnc1C(=O)NCC(=O)OC(C)(C)C	·	-0.8	·	-10	·

The list is partial, so the mix of outcomes need not match the whole.
